Screens: PubChem, several laboratories
Rce1 inhib = inhibitors of yeast Ras-converting enzyme. hit rate 0.27% among 290,000. yeast membranes, quenched prenylated peptide cleavage fluorescence. Q03530. calls only;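 active means fall in fluorescence gain of 50% or more versus controls, with final raw signal at or below 3038400; inconclusive means same 50% fall but final raw signal above 3038400; inactive means fall in fluorescence gain under 50%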;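 further: plate controls were neutral control wells for no effect and wells lacking membranes for full effect; tested at 10 µM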
Target sequence (Q03530 whole entry, looked up): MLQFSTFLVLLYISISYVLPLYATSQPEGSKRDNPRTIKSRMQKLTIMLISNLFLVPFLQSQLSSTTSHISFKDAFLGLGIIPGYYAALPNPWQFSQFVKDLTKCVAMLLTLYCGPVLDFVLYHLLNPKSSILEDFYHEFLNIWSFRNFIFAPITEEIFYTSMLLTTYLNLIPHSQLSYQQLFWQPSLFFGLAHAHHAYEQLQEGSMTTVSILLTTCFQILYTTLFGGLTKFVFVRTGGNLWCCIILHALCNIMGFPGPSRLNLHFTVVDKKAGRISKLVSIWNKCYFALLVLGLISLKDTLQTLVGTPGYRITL
CSC inhib = cancer stem cell inhibition | AID 2717 | hit rate 1.1% among 300,000 | inhibition, % at 7.5 µM | cancer stem cell-like cells viability, luminescence;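 active means mean at 75% or more and at least half the replicates too; inconclusive means mean and replicates disagree; tested in HMLE shEcad cells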;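 further: 0% = median of negative and 100% = median of positive control wells; the first replicate is given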
eIF4H inh = inhibitors of RNA binding by human eIF4H. Q15056. eIF4H fluorescence polarization binding assay. inhibition, % at 35 µM. hit rate 0.94% among 290,000;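 active means 50% or more with normal probe brightness, or confirmed in later tests; inconclusive means above 50% with abnormal brightness, or retests that disagree; inactive means below 50% or failed in later tests; about a fifth of its hits are not listed in these tables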;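 further: calls also rest on retests at 20 µM and on dose response follow-up; 0% = protein and probe with vehicle and 100% = probe without protein; strong numbers were not always called active; many hits fall short of the cut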
Yeast UUG start = modulators of start codon recognition fidelity in yeast; S. cerevisiae UUG-firefly luciferase reporter, luminescence/redox ratio; activity score, % at 18.7 µM; hit rate 0.13% among 350,000; AID 602363;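 active means replicate mean at a twofold rise or more, about +100% in these data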;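 further: firefly luciferase made from a UUG start codon reports start codon fidelity; reporter light over untreated wells divided by growth signal over untreated wells; some hits fall short of that in this replicate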
MT1-MMP act inh = MT1-MMP (human) activation inhibition; P50281; HT1080 RFP-PRO-GFP cells, GFP/RFP ratio fluorescence, overnight; percent of plate control window, DMSO zero; GFP/RFP ratio change, % at 20 µM; hit rate 0.061% among 360,000; AID 651647;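 active means GFP/RFP ratio change of at least 30% with cell ATP level not reduced by more than half and red fluorescence within 50% of control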; further: strong numbers were not always called active
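Compound: 20 µM single dose, 1% DMSO / System: HT1080 RFP-PRO-GFP cells / Controls: DMSO and RFP-L50D-GFP cell wells / Read-out basis: GFP/RFP fluorescence ratio / Schedule: overnight compound exposure at 37 °C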
PABP FP inh = PABP-poly(A) binding inhibition. hit rate 1% among 290,000. PABP-poly(A) RNA binding, fluorescence polarization. inhibition, % at 35 µM;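 active means 50% or more with normal probe brightness, or confirmed in later tests; inconclusive means above 50% with abnormal brightness, or retests that disagree; inactive means below 50% or failed in later tests; about a fifth of its hits are not listed in these tables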;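 further: calls also rest on retests at 20 µM and on dose response follow-up; controls were probe without protein and protein plus probe with vehicle; some compounds called inactive have numbers as strong as hits; many hits fall short of the cut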
Target sequence (P11940 whole entry, looked up): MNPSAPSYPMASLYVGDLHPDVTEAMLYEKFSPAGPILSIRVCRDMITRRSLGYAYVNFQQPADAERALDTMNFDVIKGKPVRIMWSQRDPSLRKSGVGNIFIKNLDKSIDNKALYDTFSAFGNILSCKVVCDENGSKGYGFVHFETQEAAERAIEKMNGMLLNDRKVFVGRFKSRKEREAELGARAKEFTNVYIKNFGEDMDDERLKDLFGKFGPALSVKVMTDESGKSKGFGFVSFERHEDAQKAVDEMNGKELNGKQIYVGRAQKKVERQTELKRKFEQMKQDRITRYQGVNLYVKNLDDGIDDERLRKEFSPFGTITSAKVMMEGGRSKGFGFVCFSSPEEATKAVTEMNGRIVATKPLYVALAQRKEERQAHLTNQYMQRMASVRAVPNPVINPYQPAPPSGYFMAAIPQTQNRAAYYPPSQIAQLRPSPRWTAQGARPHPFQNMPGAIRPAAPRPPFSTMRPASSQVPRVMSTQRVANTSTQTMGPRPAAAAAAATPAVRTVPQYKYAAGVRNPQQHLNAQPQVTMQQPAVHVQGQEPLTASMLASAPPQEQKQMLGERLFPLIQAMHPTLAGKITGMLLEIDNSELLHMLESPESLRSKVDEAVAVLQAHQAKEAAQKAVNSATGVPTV
Env fusion inh = HIV envelope-mediated fusion inhibition; AID 651610; hit rate 1.1% among 360,000; HeLa-JRFL Env/CEM21 cell fusion, luciferase; inhibition, % at 12.3 µM;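 active means mean replicate inhibition score of at least 50 and every replicate individually at or above 50; inconclusive means only one of the two criteria met; inactive means mean below 50 and not all replicates reaching 50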;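 further: 0% = plate neutral controls and 100% = maraviroc near 300 nM; one replicate is shown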
MT1-MMP act inh RFP = recorded beside MT1-MMP act inh, whose call it bears; RFP signal change, %; measured here: RFP expression control read;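 0 = vehicle wells; hits needed this value within 50% of zero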
The depositor's hits bear a star; i = inactive; ? = inconclusive; / = no result given; + = active, no number; & = joins results of further samples; [ ] = dose if it differs, or a comment. A portion of the library, so the mix of outcomes need not match the whole.

SMILES | Rce1 inhib | CSC inhib | eIF4H inh | Yeast UUG start | MT1-MMP act inh | MT1-MMP act inh RFP | PABP FP inh | Env fusion inh
CCN(C(=O)CSc1nc(C)c(C)c(C)n1)C1CCS(=O)(=O)C1 (stereo not given) | / | -20 | / | 2 | -2 | 2 | / | -11
CC(C)c1nc2ccccc2c2nnc(SCC(=O)NCc3ccco3)n12 | i | -4 | -2 | -19 | -1 | -3 | -6 | -36
O=C(Cn1nnc(-c2ccccc2)n1)Nc1ccccc1N1CCOCC1 | i | -10 | 0 | -9 | 6 | 0 | 0 | 31
COC(=O)C1=C(C(=O)OC)SC(=C2C(=S)C(C)(C)N(C(=O)C3CC3)c3ccccc32)S1 | / | 35 | -14 | -12 | 29 | -5 | 0 | -18
O=C(Nc1cccc(C(=O)N2CCOCC2)c1)c1ccccc1 | i | / | 3 | -10 | 4 | 8 | 2 | -270
ONC(=Nc1ccc(Cl)cc1)c1ccc(Cl)cc1 | i | 16 | -3 | -19 | -2 | 3 | -6 | -22
Cc1ccc(C(=O)NCCCNC(=O)c2ccco2)cn1 | i | / | 4 | 14 | 3 | 3 | 2 | 17
CCOc1ccc(-c2nnc3sc(COc4ccc(C)cc4)nn23)cc1 | i | / | -8 | -7 | 6 | 3 | -1 | -14
Clc1ccc(Cn2ncc3c(N4CCCCC4)ncnc32)c(Cl)c1 | i | -4 | -1 | / | / | / | 1 | /
CCCN1CCC(=O)N([C@H](CSc2ccc(C)cc2)Cc2ccccc2)CC1 | i | / | -2 | -18 | 2 | 2 | 5 | -2

Looked up above.
`CCOc1ccc(-c2nnc3sc(COc4ccc(C)cc4)nn23)cc1` @ MT1-MMP act inh RFP = 3
`Cc1ccc(C(=O)NCCCNC(=O)c2ccco2)cn1` @ MT1-MMP act inh RFP = 3
`ONC(=Nc1ccc(Cl)cc1)c1ccc(Cl)cc1` @ PABP FP inh = -6

(continued)
SMILES | Rce1 inhib | CSC inhib | eIF4H inh | Yeast UUG start | MT1-MMP act inh | MT1-MMP act inh RFP | PABP FP inh | Env fusion inh
CCNC(=S)N(CCN(C)C)Cc1cc2cc(OCC)ccc2[nH]c1=O | i | -11 | -4 | / | -1 | 2 | 6 | -8
Cc1sc2ncnc(N3CCC(C(=O)Nc4ccc(C#N)cc4)CC3)c2c1C | i | -9 | / | / | -3 | -6 | / | 13
Cn1c(N)c(C(=O)COC(=O)CNC(=O)c2ccccc2)c(=O)n(C)c1=O | / | -10 | / | -8 | -3 | -2 | / | 20
Cc1ccc([C@@H]2CC(=O)[C@@H]3CN(S(=O)(=O)c4ccc(C)cc4)[C@H](c4cccc5ccccc45)C[C@@H]3N2S(=O)(=O)c2ccc(Cl)cc2)cc1 | / | / | / | -17 | 0 | -1 | / | -11
CCNc1nc(NCC)nc(N/N=C/c2ccc(O)c(O)c2)n1 | i | 2 | 2 | / | 4 | 5 | 5 | -2
CC(C)(C)c1ccc(C(=O)NCC(=O)OCCN2C(=O)c3ccccc3C2=O)cc1 | i | -11 | / | -2 | 23 | 3 | / | -7
Cc1ccc2cc(CN(C(=O)c3ccco3)c3cccc(C)c3C)c(=O)[nH]c2c1 | i | -7 | 5 | -6 | -2 | -1 | 0 | -16
Cc1cccc(N(CC(=O)NCc2ccco2)S(=O)(=O)c2ccccc2)c1 | / | / | / | -31 | 5 | 1 | / | 12
O=C(O)C1Nc2ccc(Br)cc2C2C=CCC12 (stereo not given) | i | -3 | 105* | -2 | 8 | 6 | 94* | /
Cc1nn(-c2ccccc2)c(C)c1P(=O)(c1ccccc1)N(C)C (stereo not given) | i | -6 | -2 | -13 | 0 | 5 | 5 | /
CC#CC(=O)N1CCC(CCc2ccccc2)(C(=O)OCC)CC1 | i | -15 | -7 | -14 | -1 | -1 | 5 | 17
Cc1c(C(=O)Nc2nccs2)sc2nc(-c3cccs3)cc(C(F)(F)F)c12 | i | 25 | -4 | / | 3 | 3 | 3 | 57*
Cc1nn(C(=O)c2cc([N+](=O)[O-])ccc2Cl)c(C)c1Br | i | -2 | -6 | 0 | 1 | 3 | 7 | -9
COc1cccc(-n2c(Cc3cc(=O)[nH]c(=O)[nH]3)nnc2SCC(=O)N2CCC(C)CC2)c1 | i | 6 | 14 | 4 | 2 | -1 | 10 | -50
Cc1cc([N+](=O)[O-])nn1CCCC(=O)Nc1cccnc1Cl | i | -14 | 11 | -16 | 2 | 1 | -10 | -10
Cc1ncc(CC(=O)n2cc(C(=O)c3cc(Cl)ccc3O)cn2)s1 | i | -9 | 2 | -15 | -3 | -7 | -8 | /
Fc1cccc(CNCc2ccc3c(c2)OCO3)c1 | i | -9 | -2 | -5 | 3 | 5 | -2 | -7
CS(=O)(=O)c1ccccc1-c1nnc(NC(=O)c2ccc(S(=O)(=O)N3CCCC3)cc2)o1 | i | 3 | / | -21 | 4 | 1 | / | 0
C[C@H]1CN([C@@H](C)CO)C(=O)Cc2cc(NC(=O)CCC(F)(F)F)ccc2O[C@H]1CN(C)S(=O)(=O)c1ccc(Cl)cc1 | / | / | / | 6&2 | 16 | -5 | / | -271[16.7 µM]
CCOC(=O)[C@H]1[C@H]2COc3ccc(Cl)cc3[C@@H]2N2C(=O)CN(Cc3ccccc3)C(=O)[C@@]12C | / | 29 | / | 11 | -4 | -5 | / | -104

Two consecutive records out of the list so far:
SMILES | Rce1 inhib | CSC inhib | eIF4H inh | Yeast UUG start | MT1-MMP act inh | MT1-MMP act inh RFP | PABP FP inh | Env fusion inh
CCN(C(=O)CSc1nc(C)c(C)c(C)n1)C1CCS(=O)(=O)C1 (stereo not given) | / | -20 | / | 2 | -2 | 2 | / | -11
CC(C)c1nc2ccccc2c2nnc(SCC(=O)NCc3ccco3)n12 | i | -4 | -2 | -19 | -1 | -3 | -6 | -36

(further entries)
SMILES | Rce1 inhib | CSC inhib | eIF4H inh | Yeast UUG start | MT1-MMP act inh | MT1-MMP act inh RFP | PABP FP inh | Env fusion inh
Cc1ccc(S(=O)(=O)N2CCC(=O)N(CCOC(=O)Nc3ccc(F)cc3)CC2)cc1 | i | 16 | -4 | 10 | 4 | -9 | 4 | 40
Cc1cc(=O)oc(C)c1C(=O)NC1CC(C)(C)NC(C)(C)C1 | i | / | -6 | -17 | 3 | 6 | 1 | /
O=C(CN1CCOCC1)NNC(=S)Nc1ccc(Cl)cc1 | i | 2 | -2 | -22 | -1 | 1 | -6 | 5
Cc1ccc(CN(C(=O)c2c(F)cccc2F)C2CC(C)(C)NC(C)(C)C2)o1 | i | -10 | 3 | -16 | -3 | -2 | 0 | 20
NNC(=O)CCN1CCN(Cc2ccccc2)CC1 | i | 3 | -2 | -19 | -2 | 1 | 12 | 3
CCNC(=O)Nc1ccccc1C(=O)OC | i | -11 | 1 | / | 2 | 3 | -3 | -64
Cc1cc(Cl)c(S(=O)(=O)NCc2cccnc2)cc1OCC(=O)NC1CCCCC1 | i | -5 | -16 | -9 | 4 | -3 | -5 | -88
O=c1c2ccccc2nc(/C=C/c2ccccc2)n1CCCO | i | 7 | -2 | 3 | -3 | -9 | -8 | -17
CCc1cc(-c2n[nH]c(=S)n2N)n(C)n1 | i | -4 | 11 | / | 3 | 1 | -1 | /
CCOC(=O)COc1c(C=O)cc(Br)cc1OC | i | -2 | 2 | 9 | 1 | 5 | -4 | -11

Reprinted from the part before: 2 compounds, then new ones.
SMILES | Rce1 inhib | CSC inhib | eIF4H inh | Yeast UUG start | MT1-MMP act inh | MT1-MMP act inh RFP | PABP FP inh | Env fusion inh
CCc1cc(-c2n[nH]c(=S)n2N)n(C)n1 | i | -4 | 11 | / | 3 | 1 | -1 | /
CCOC(=O)COc1c(C=O)cc(Br)cc1OC | i | -2 | 2 | 9 | 1 | 5 | -4 | -11
CSc1ccc(C(=S)N2CCN(C)CC2)cc1 | i | -8 | -8 | / | 8 | 3 | -1 | /
COCCn1c(-c2ccc(Cl)cc2)cnc1SCC(=O)NCCc1ccc(OC)c(OC)c1 | i | 2 | -1 | / | 6 | -12 | 2 | 2
O=C(Cc1cccs1)Nc1ccc(-c2nnn(CC(=O)N3CCOCC3)n2)cc1 | i | -7 | 30 | / | / | / | 19 | /
CCOC(=O)C1CCN(C(=O)Cc2ccc(OC)c(OC)c2)CC1 | i | 2 | -1 | -4 | 6 | 0 | -6 | /
C[C@@H](NCCCn1ccc(NC(=O)OCc2ccccc2)nc1=O)c1cccc2ccccc12 | / | / | / | -4 | -1 | 1 | / | -32
CC(C)(NC(=O)c1cc(Cl)c2ccccc2c1O)C(=O)O | i | -2 | -14 | -16 | 0 | -2 | 16 | -57
O=C(CC(c1ccc(F)cc1)c1ccco1)Nc1nccs1 (stereo not given) | / | -6 | -5 | -20 | -4 | -2 | 0 | 8
CCc1ccc(-n2c(=S)sc3c(=O)n(-c4ccccc4C)c(SCC(=O)O)nc32)cc1 | i | -4 | -9 | -9 | 6 | 4 | 1 | -19
CC(=O)C1=C(O)CCCC1=NCc1nc2ccccc2[nH]1 | / | 4 | 5 | / | -2 | -2 | -8 | 17
COc1ccc(/C(C)=N/NC(=O)CNC(=O)c2cccnc2)cc1OC | i | 3 | -6 | -10 | -3 | -3 | -6 | -10
Cc1cc(NS(=O)(=O)c2ccc(NC(=O)C(C)Oc3ccc(C(C)C)cc3)cc2)no1 (stereo not given) | i | / | 1 | -13 | 0 | 0 | -2 | 4
COc1ccc(NC(=O)CC(C)NCCCN2CCCC2=O)cc1 (stereo not given) | i | -2 | 8 | -12 | 1 | 3 | 14 | -7
Cc1cccc(CN2C(=O)CSc3ccc(C(=O)NC4CC4)cc32)c1 | i | -5 | 1 | -4 | 0 | -5 | 10 | -2
CCOc1ccc(OCC(=O)OCn2c(SC)nnc(C)c2=O)cc1 | i | -17 | -10 | / | 4 | 4 | -20 | 4
CCOC(=O)c1ccc(NC(=O)CN2C(=O)C(C)SC(C)C2=O)cc1 (stereo not given) | i | 6 | -2 | 3 | 0 | 2 | -2 | -28
Cc1ccc(C(=O)NC(=S)NNC(=O)c2ccccc2[N+](=O)[O-])cc1 | i | -8 | 0 | -30 | 11 | 7 | -5 | /
CC(C)C(=O)N1CCN(c2nc(-c3ccccc3)c3c(c2C#N)CCCC3)CC1 | + | 30 | 6 | -7 | -12 | -16 | -7 | ?
COCCNC(=O)CCc1c(C)nc2c(c(C)nn2-c2ccc(C)cc2)c1C | i | -4 | -6 | -3 | -2 | -5 | 9 | 8
O=C1C2C3C=CC(CC3)C2C(=O)N1/N=C/c1c[nH]c2ccccc12 (stereo not given) | i | -4 | -8 | / | 4 | 8 | -7 | -9
CC1CCc2nc3ccc(S(=O)(=O)N4CCC(C(=O)O)CC4)cc3c(C(=O)O)c2C1 (stereo not given) | i | -5 | -6 | 0 | 0 | 4 | 6 | -12
Cc1cc(C)c[n+](C(C)C(=O)c2ccc(Cl)cc2)c1 (stereo not given) | i | -14 | 0 | -2 | / | / | 11 | 17
COc1ccc(S(=O)(=O)NCc2ccccc2Cl)cc1OC | i | -10 | -10 | -5 | 2 | 0 | 3 | /
N#Cc1c(-c2cccc(Cl)c2)[nH]c(=S)[nH]c1=O | i | -4 | 0 | / | 2 | 0 | 4 | 2
CC(=O)Oc1ccc2c(c1)O/C(=C\c1ccncc1)C2=O | i | -9 | ? | -7 | -5 | -3 | ? | /
